B2AR ag = activates human beta-2 adrenergic receptor causing internalization | response, % (no concentration beside the values) | 0.43% of 340,000 active | AID 504454 | Am2.2-beta2AR cells, FAP receptor internalization, flow cytometry; reference of the scale not given here | P07550;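 active = response above a set limit, near 3 SD of response in nonfluorescent compounds, cut at about 42% in these data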;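 also: stock transfer was 100 nL into about 11 µL; a reference agonist was the positive control; negative values mostly stem from fluorescent compounds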
Target sequence (P07550 whole entry, looked up): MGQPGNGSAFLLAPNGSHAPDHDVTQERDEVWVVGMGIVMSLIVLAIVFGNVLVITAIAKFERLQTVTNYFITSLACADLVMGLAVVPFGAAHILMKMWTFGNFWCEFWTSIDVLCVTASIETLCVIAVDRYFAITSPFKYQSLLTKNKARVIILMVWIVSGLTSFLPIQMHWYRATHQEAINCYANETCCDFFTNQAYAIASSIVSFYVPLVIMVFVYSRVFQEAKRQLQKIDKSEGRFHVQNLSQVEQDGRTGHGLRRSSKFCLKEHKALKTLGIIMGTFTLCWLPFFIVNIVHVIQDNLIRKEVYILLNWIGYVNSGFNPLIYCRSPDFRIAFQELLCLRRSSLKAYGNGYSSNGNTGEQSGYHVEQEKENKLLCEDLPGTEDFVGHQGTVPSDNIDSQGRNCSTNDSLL
UCH37 inh = inhibitors of human deubiquitinating enzyme UCH37; 0.33% of 330,000 active; purified proteasome/UCH37, Ub-AMC cleavage fluorescence; Q9Y5K5; inhibition, % (no concentration beside the values);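 active = mean of two replicates above 20%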;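 also: 0% = compound-free wells with enzyme and 100% = wells lacking proteasome; stock transfer was 100 nL into about 20 µL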
Target sequence (Q9Y5K5 whole entry, looked up): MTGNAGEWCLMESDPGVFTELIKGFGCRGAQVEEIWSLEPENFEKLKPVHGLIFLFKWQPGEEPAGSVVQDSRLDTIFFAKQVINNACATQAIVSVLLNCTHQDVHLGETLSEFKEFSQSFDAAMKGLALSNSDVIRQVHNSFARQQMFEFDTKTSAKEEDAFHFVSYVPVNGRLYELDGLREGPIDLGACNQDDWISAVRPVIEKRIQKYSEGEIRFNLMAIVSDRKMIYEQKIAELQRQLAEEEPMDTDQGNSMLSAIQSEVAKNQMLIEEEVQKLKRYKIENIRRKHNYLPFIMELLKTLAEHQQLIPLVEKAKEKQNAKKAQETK
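System: Proteasome-associated human UCH37 deubiquitinase; Input: 0.15 nM proteasome in added enzyme buffer; Also added: Ub-AMC substrate from 1 µM stock; Incubation: 30 min compound-proteasome preincubation then 25 min substrate reaction, room temperature; Detection: fluorescence, ex 355 nm, em 460 nm; Read-out: % inhibition of Ub-AMC cleavage fluorescence; Benchmarks: no-proteasome and no-compound wells.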
RanGTP-Imp inh = inhibitors of RanGTP-importin-beta interaction, primary screen, biochemical, FRET, CFP-Ran, YFP-importin-beta, homogeneous | cell-free CFP-Ran/YFP-importin-beta FRET ratio | inhibition, % (test concentration not listed) | 1.1% of 300,000 active | AID 2216;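 active = most replicates above 15%; inconclusive = exactly half above 15%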;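 also: 0% = DMSO wells and 100% = Ran loaded with GDP instead of GTP; wells of about 40 µL received 100 nL stock; the first replicate is given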
Calb FLC = affects C. albicans growth with fluconazole; 0.57% of 300,000 active; C. albicans CaCi-2 (fluconazole-resistant clinical isolate) + fluconazole, Alamar Blue growth, 48 h; AID 1979; growth inhibition, % (test concentration not listed);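 active = most replicates above 75%; inconclusive = exactly half above 75%; inactive = most below 75%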;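 also: all wells also contain fluconazole at 8 µg/ml as a sub-toxic cotreatment; 0% = median of DMSO wells and 100% = median of geldanamycin control wells; wells of about 8 µL received 7.5 nL stock; the first replicate is given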
A1 inh = inhibitors of the anti-apoptotic protein A1, read as caspase activation; MEF A1-2A-BIM cells, Caspase-Glo 3/7 luminescence, 3 h; percent of clofoctol response, vehicle zero; caspase activation, % (test concentration not listed); 0.066% of 330,000 active;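 active = over half of replicate activation scores above 10%, or exactly half above 10 with the replicate mean above 10; inconclusive = replicate mean below 10 yet half the replicates above 10; inactive = over half of replicates below 10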;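 also: wells of about 30 µL received 50 nL stock; many hits fall short of the cut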
T cruzi repl = T. cruzi replication inhibition; T. cruzi beta-gal in NIH3T3, luminescence, 90 h; inhibition, % (test concentration not listed); 1.4% of 300,000 active;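 active = mean inhibition across valid replicates above about 55%, limit read from the data; inconclusive = mean below that limit but half or more replicates reach it; inactive = mean below it, under half of replicates reach it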;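 also: signal also drops with host cell toxicity which is not excluded here; 0% = plate median of DMSO wells and 100% = zero luminescence signal; higher percent means less beta-gal luminescence so fewer parasites; stock transfer was 50 nL into about 50 µL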
Beta cell apopt = blocks beta cell apoptosis; INS-1E cytokine-induced death, ATP luminescence, 48 h; percent of positive-control rescue, neutral wells zero; protection from apoptosis, % (test concentration not listed); 0.8% of 300,000 active;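 active = all replicates at 75% or more, or half of them and the mean; inconclusive = half reach 75% but not the mean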;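 also: 0% = cytokine-treated negative control wells and 100% = positive control rescue; higher means more ATP so stronger rescue from cytokine killing; wells of about 40 µL received 100 nL stock; the first replicate is given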
LANA-H2B inh = blocks KSHV LANA binding to histone H2A/H2B | inhibition, % (no concentration beside the values) | cell-free LANA-H2A/H2B peptide, fluorescence polarization | 0.6% of 320,000 active; in the data active = inhibition mostly above about 10%, no sharp cut-off; inactive = mostly below about 6.7%;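 also: stock transfer was 7.5 nL into about 10 µL; 0% = median of vehicle wells and 100% = median of positive control wells; one replicate is shown; the record names a cut of 25% in any replicate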
An asterisk follows results filed as active; ? = inconclusive; . = no result given; & = joins results of further samples.

SMILES	B2AR ag	UCH37 inh	RanGTP-Imp inh	Calb FLC	A1 inh	T cruzi repl	Beta cell apopt	LANA-H2B inh
Cc1[nH]nc2c1C(CCc1ccccc1)C(C#N)=C(N)O2 (stereo not given)	-1.0	0.1	0.1	9.4	0.5	-8.2	-1.1	1.9
CCN(CC(=O)N1CCCC1)S(=O)(=O)c1ccc2ccccc2c1	-10.9	-1.1	-1.6	-4.8	0.0	2.6	.	1.1
COc1ccc(-c2c3c(=O)n(C)c(=O)n(C)c3cn2C2CCCCC2)cc1	4.9	-18.1	-4.5	46.1	-0.1	35.3	10.8	-8.9
CCOc1ccc2nc(Nc3nc(CSc4nnnn4-c4ccccc4)cc(=O)[nH]3)nc(C)c2c1	5.5	0.7	-2.1	17.7	-0.2	17.9	-1.0	-0.6
CCn1cc(C(=O)O)c(=O)c2cnc(N3CCN(C(=S)NC(=O)c4ccc(OC)cc4)CC3)nc21	9.5	-67.2	-0.6	-6.7	0.3	-13.1	-7.2	1.2
O=C(NCc1ccc(Cl)cc1)C(=O)NCC1OCCCN1S(=O)(=O)c1cccs1 (stereo not given)	-4.4	1.5	-3.1	17.4	0.2	10.6	-3.1	2.7
O=C1NC[C@@H](c2ccccc2)OC(=O)[C@H](Cc2ccc(F)cc2)CC/C=C/C[C@H]1CC(=O)N(CCO)Cc1ccccc1	21.4	0.9	.	.	-0.3	.	5.8	-0.6
Cn1c(=O)c(=O)n(C)c2cc(S(=O)(=O)NCCc3ccccc3)ccc21	3.9	-6.0	-1.6	-8.0	0.4	-8.3	-2.1	-5.5
Cc1cc(C(=O)NCCC2=CCCCC2)c(C)o1	7.9	8.3	2.5	-6.9	-0.8	-6.2	-11.6	4.0
CCOC(=O)c1cc(C(=O)OCC)c2cccc(C)n2c1=O	-0.8	-21.4	35.6*	2.7	-0.3	6.2	2.6	10.5
CN1CCN(CC(=O)N2c3ccccc3Sc3ccccc32)CC1	2.2	1.9	-0.3	-10.6	0.8	13.7	.	9.3
Cn1c(NCc2ccco2)nc2c1c(=O)n(Cc1ccc(Cl)cc1Cl)c(=O)n2C	-6.0	-2.7	-3.3	-2.9	0.7	-12.5	.	3.3
CCOC(=O)/C(=C/c1ccc(N2CCC(c3ccccc3)=N2)cc1)C(C)=O	-202.4	-275.9	-1.6	-12.4	.	9.0	.	.
Cc1cc2ccccc2n1CCNC(=O)C(C)C	4.4	4.0	2.0	-2.5	-0.1	6.4	-0.1	-0.2
Cc1cc(C(=O)OCC(=O)NCc2ccccc2Cl)c(C)o1	3.8	-0.7	-13.5	-4.2	0.0	-13.0	4.5	-5.3
COc1ccccc1Oc1nc2ccccn2c(=O)c1/C=C(\C#N)C(=O)Nc1c(C)n(C)n(-c2ccccc2)c1=O	2.7	-13.6	0.5	3.6	0.2	-2.8	4.4	-5.5
CC(C)CN(C(=O)CCc1ccccc1Cl)c1c(N)n(Cc2ccccc2)c(=O)[nH]c1=O	-1.1	2.9	?	16.2	0.6	-10.2	5.2	2.0
Cc1nc2c3cc(F)ccc3n(Cc3ccc(F)cc3)c2s1	0.2	-1.4	4.4	6.0	0.3	-66.5	1.0	7.0
Cc1cc(C(=O)N2CCCC(CO)(Cc3ccc(F)cc3)C2)c(C)o1 (stereo not given)	-0.4	5.5	0.5	-5.9	1.1	0.3	.	1.7
CC(=O)NCCNC(=O)c1ccc2c(c1)S(=O)(=O)c1ccccc1C2=O	0.2	0.6	1.3	1.7	0.6	-4.5	-3.6	-2.0
Nc1c(C(=O)N2CCOCC2)sc(=S)n1-c1ccccc1	0.0	7.9	-1.8	21.7	-0.5	-20.3	-0.9	1.7
Cc1cc(C)c(C)c(OCC(=O)O/N=C(\N)c2ccncc2)c1	-3.4	0.9	8.8	16.2	-0.7	12.1	.	0.6
Cc1cc(NC(=O)/C=C/C(=O)N(CC(=O)NC2CCCC2)c2ccc(F)cc2)no1	1.6	1.3	0.4	3.0	0.0	-20.1	-2.0	-3.7
CCc1c(O)nc(SCC(=O)c2ccccc2)n(-c2ccccc2)c1=O	13.7	4.0	-5.9	0.2	0.2	0.6	-0.6	-0.4
CCc1nnc(NC(=S)Nc2ccccc2)s1	-0.2	6.3	0.8	?	-2.0	-3.1	4.8	-5.8
CCCCCCSc1ccc(-c2nc3ccccn3c2NCCCC)cc1	1.4	-305.8	1.8	-1.8	-1.3	21.9	10.2	1.9
O=C(NCc1ccc(Cl)cc1)C1CCCO1 (stereo not given)	3.6	2.9	-1.1	1.8	-0.2	-8.4	0.1	-1.6
C=CCNC(=O)C1CC1(c1cccc(C)c1)c1cccc(C)c1 (stereo not given)	6.0	2.3	-1.1	5.5	0.6	3.7	.	-5.7
CSCCC(NC(=O)c1ccccc1Cl)C(=O)N(C)CC(=O)Nc1ccc(N2CCOCC2)cc1 (stereo not given)	9.9	0.7	-3.4	1.5	0.7	-1.8	1.0	1.8
Oc1ccc(-c2nc3cnccn3c2Nc2ccc3c(c2)OCCO3)cc1	-0.2	-21.4	-3.4	-1.2	.	-38.3	-6.8	-5.2
COc1ccc(OC)c(CN2CCN(C(=O)c3cccs3)CC2)c1	6.7	3.2	-4.3	-11.8	-0.3	-15.6	3.7	-11.2
Cc1cccc(C)c1OCc1cc(C(=O)N2CCC(c3ccccc3)CC2)no1	3.9	1.4	0.9	4.0	0.6	35.4	5.9	2.9
C=CCn1c(SCC(=O)N2CCN(c3ccccc3)CC2)nnc1-c1ccco1	-7.5	3.7	-7.1	-2.2	0.0	-13.4	-2.9	-3.8
Cc1ccc(C)c(N(CC(=O)NCC2CCCO2)C(=O)CCC(=O)Nc2nccs2)c1 (stereo not given)	-5.6	1.3	0.7	-8.7	-0.1	10.5	-2.2	1.3
Cc1ccc(OCC(O)CN2CCN(Cc3ccc4c(c3)OCO4)CC2)c(C)c1 (stereo not given)	3.5&4.7	0.7&0.9	1.0	-5.0	-0.1	31.4	-7.0	0.4
O=C(NCCCn1ncc2ccccc21)c1cc(COc2c(F)cccc2F)on1	1.6	-1.1	-4.2	0.6	0.4	11.9	-4.7	0.1
CSCCC(NC(=O)c1cc(CC(C)C)oc1C)C(=O)O (stereo not given)	-0.5	0.8	1.3	4.9	-0.2	-11.2	-5.5	3.8
CCCCN1C(=O)C2(NNc3ccccc3O2)c2ccccc21 (stereo not given)	-186.7	5.4	-36.3	-33.5	0.2	28.1	-0.5	3.7
O=C(CSc1n[nH]c(=O)[nH]c1=O)N/N=C/C=C\c1ccccc1	-5.7	.	-0.1	-0.3	-0.1	-7.1	-1.8	-8.4
C[C@H]1Oc2ccccc2C(=O)C1C(=O)c1ccccc1 (stereo not given in full)	-7.5	0.1	2.5	-8.0	0.1	-7.6	8.4	-1.6
Cc1cc(C)c(C(=O)Nc2ccccc2)c(CC(C)(C)C(=O)O)c1	2.8	3.2	1.5	19.8	0.2	.	-3.7	8.3
COc1cc(NC(=O)C2CCCCC2)c2ncccc2c1	-19.6	6.0	5.0	20.8	-0.2	-6.3	-1.7	0.3
O=C(CCNS(=O)(=O)c1ccccc1)N1CCN(c2ccccc2)CC1	2.0	.	5.2	-4.1	0.8	-8.9	.	-1.2
CC(CC(=O)N(C)CC(=O)Nc1ccc(N2CCOCC2)cc1)c1ccccc1 (stereo not given)	1.5	1.6	0.5	-6.7	0.7	-6.9	-7.4	0.4
OCCSc1nncn1/N=C/c1c[nH]c2ccccc12	-0.9	.	-0.9	-4.5	0.2	3.1	-2.1	7.4
CCC1=NNC(=O)C(CC(=O)Nc2ccccc2)c2cc(OC)c(OC)cc21 (stereo not given)	-1.8	2.3	-1.5	0.0	-2.7	-7.0	10.7	7.6
CNc1nc(Oc2ccc(C(=O)OC)cc2)nc(SC)n1	-1.4	0.8	-3.0	19.9	0.4	-5.6	-3.6	0.8
O=C(Nc1ccc(S(=O)(=O)Nc2ncccn2)cc1)c1cnc(Cl)c(Cl)c1	7.9	2.9	0.8	-4.7	-0.2	6.8	-4.1	-0.4
COc1ccccc1C(=O)COC(=O)CCCN=C1NS(=O)(=O)c2ccccc21	-5.8	-2.4	2.7	3.1	-0.1	-0.4	2.4	-4.8
CC1=NN(c2ccccc2)C(=O)/C1=C\c1c(C)[nH]n(-c2ccccc2)c1=O	1.7	4.0	0.0	-17.9	0.8	2.0	-2.9	-3.8
COc1ccc(N2CCN(c3nc4ccccn4c(=O)c3/C=C(\C#N)S(=O)(=O)c3ccccc3)CC2)cc1	4.8	.	7.2	2.1	-0.3	5.3	-8.8	-5.8
COCCN(C(=O)COC(=O)CCC(=O)c1ccc(C)cc1)c1c(N)n(Cc2ccccc2)c(=O)[nH]c1=O	4.8	0.6	1.4	-2.1	1.0	1.8	-3.3	-4.9
O=C1CC(C(=O)Nc2ccccc2)N=C(N2CCCCC2)N1 (stereo not given)	6.2	5.5	-0.4	14.8	1.8	7.4	-4.9	-2.5
C(=N\n1cnnc1)/c1ccc(N2CCOCC2)cc1	-1.8	.	?	-2.0	0.6	-11.2	-2.3	-0.3
Cc1ccc2c(CC(=O)OCC(=O)N(CC(C)C)c3c(N)n(Cc4ccccc4)c(=O)[nH]c3=O)coc2c1	0.5	4.4	1.7	5.9	-0.9	-4.0	-1.6	3.2
COCC(=O)Nc1ccccc1NC(C)=O	3.4	4.5	0.2	-9.0	1.1	-11.2	-3.1	0.3
N/C(=N\OC(=O)c1cccnc1)c1ccc(Cl)cc1Cl	-12.7	5.8	1.0	23.1	0.3	-7.1	-0.8	6.6
COc1ccc(CN2CCSCC2)cc1C	9.3	0.1	4.2	-3.7	0.6	-11.4	-1.9	-6.5
Cn1c(CSCc2ccccc2)nnc1SCC(=O)Nc1nccs1	-2.3	-0.7	0.8	6.2	-0.7	-16.5	-3.9	7.8
c1ccc(CSc2snnc2-c2ccccc2)cc1	3.5	2.7	2.3	-4.3	.	-6.3	-8.6	11.1

Record cards, from the list above. Order of screens: B2AR ag | UCH37 inh | RanGTP-Imp inh | Calb FLC | A1 inh | T cruzi repl | Beta cell apopt | LANA-H2B inh
Results for `C(=N\n1cnnc1)/c1ccc(N2CCOCC2)cc1` → -1.8 | . | ? | -2.0 | 0.6 | -11.2 | -2.3 | -0.3
Results for `CC1=NN(c2ccccc2)C(=O)/C1=C\c1c(C)[nH]n(-c2ccccc2)c1=O` → 1.7 | 4.0 | 0.0 | -17.9 | 0.8 | 2.0 | -2.9 | -3.8

Going on with the list:
SMILES	B2AR ag	UCH37 inh	RanGTP-Imp inh	Calb FLC	A1 inh	T cruzi repl	Beta cell apopt	LANA-H2B inh
COc1cc(C(=O)Nc2nnc(C3=COCCO3)o2)cc(OC)c1OC	-2.1	5.2	.	.	0.6	-6.2	0.0	-1.1
Cc1csc2c(=O)sc(NC(=O)c3ccc(F)cc3Cl)nc12	13.9	-19.3	6.1	-10.5	0.4	-26.3	-4.2	2.3
O=C(C1CC2CCC1C2)N1CCN(Cc2ccc3c(c2)OCO3)CC1 (stereo not given)	.	-0.7	-1.9	-24.6	-0.4	6.1	-0.6	-2.3
COc1ccc(-c2nc3ncccc3o2)cc1NC(=O)c1cccs1	-8.5	-18.5	1.5	-4.8	-0.7	34.5	4.1	3.2

Compound activity deposited in PubChem BioAssay by several laboratories.
